MARV entry inh = qHTS for inhibitors of binding or entry into cells for Marburg Virus. Marburg virus pseudotyped entry inhibition, cell reporter; control for the full effect not named in the record; about a third of the inactives were read at about 46 µM. Potency, µM (titrated, usually from 37.8 µM), without a hit: top-dose activity change, negative = inhibition, hits mostly inhibitors. actives 1.8% (n = 300,000). AID 540276, 2011; active = well fitted inhibition curve with a large enough effect; inconclusive = small, poorly fitted or top-dose-only effect, or effect the other way; inactive = flat fitted curve, though single readings scatter; tested in HEK293 cells; about a fifth of its hits are not listed in these tables; note: % is set by controls: 0 for no effect and ±100 for the full control effect; luciferase read-out
SARS PLpro yeast = qHTS of Yeast-based Assay for SARS-CoV PLP. Potency, µM (top dose mostly 32.9 µM), without a hit: at the highest dose activity, positive = growth rescue. S. cerevisiae expressing SARS-CoV PLpro, growth rescue; control for the full effect not named in the record. actives 0.19% (n = 330,000). AID 485353, 2010; active means well fitted rising curve with a large enough effect; inconclusive means small, poorly fitted or top-dose-only effect; inactive means no such curve, though single readings can be large or run the other way; note: 0% is about no effect; nearly all actives have a fitted effect of over 55% in size; growth read by luminescence after 48 h
Cruzain Triton = qHTS Assay for Promiscuous and Specific Inhibitors of Cruzain (with detergent). actives 0.43% (n = 200,000). Potency, µM, for the others: max response, negative = inhibition, most hits filed as inhibitors. purified cruzain, Z-FR-AMC fluorescence, 0.01% Triton;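 note: plate controls were neutral wells for no effect and buffer without enzyme for full effect; nearly all actives have a fitted effect of over 40% in size; top concentration of the series not given in the record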
Target sequence (P25779 123-467 limits assumed): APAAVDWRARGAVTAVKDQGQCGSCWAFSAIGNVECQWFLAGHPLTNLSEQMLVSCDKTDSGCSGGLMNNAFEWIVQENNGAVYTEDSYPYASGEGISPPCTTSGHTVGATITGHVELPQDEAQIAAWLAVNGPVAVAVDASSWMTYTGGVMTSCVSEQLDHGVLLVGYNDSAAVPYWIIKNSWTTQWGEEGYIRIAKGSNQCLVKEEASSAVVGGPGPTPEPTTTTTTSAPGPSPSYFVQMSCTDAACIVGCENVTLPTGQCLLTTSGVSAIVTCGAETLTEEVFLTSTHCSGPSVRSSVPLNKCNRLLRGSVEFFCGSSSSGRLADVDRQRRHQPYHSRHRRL
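Read-out: AMC fluorescence (360 nm excitation, 450 nm emission), four reads over 2 min, first-to-third difference used. Conditions: cruzain 1.5 nM, Z-FR-AMC 2 uM, pH 5.5 acetate, 5 mM DTT, 0.01% Triton X-100.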
RE007 growth inh = qHTS Assay for Inhibitors of the HIV-1 protein Vpr | S. pombe RE007 Vpr strain, BacTiter-Glo ATP luminescence, 24 h; control for the full effect not named in the record | Potency, µM (highest dose often 92.2 µM), for inactives: at the highest dose activity change, negative = less growth | actives 0.21% (n = 360,000) | AID 651644, 2012; active = well fitted falling curve with a large enough effect; inconclusive = small, poorly fitted or top-dose-only effect; inactive = no such curve, though single readings can be large or run the other way;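 note: % is set by controls: 0 for no effect and ±100 for the full control effect; nearly all actives have a fitted effect of over 50% in size; the assay follows cell death caused by Vpr and the record does not say whether a fall means rescue or toxicity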
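Fission yeast strain RE007, carrying one chromosomally integrated HIV-1 vpr copy, was seeded at OD 0.01 in PMG+AL medium with 23 nL pinned compound. After 24 h at 30 °C and 99% humidity, viability was read by BacTiter-Glo luminescence.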
Cruzain noTriton = qHTS Assay for Promiscuous and Specific Inhibitors of Cruzain (without detergent); purified cruzain, Z-FR-AMC fluorescence, no detergent; Potency, µM, without a hit: max response, negative = inhibition, most hits filed as inhibitors; actives 2.3% (n = 200,000);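 note: plate controls were enzyme without inhibitor for no effect and buffer without enzyme for full effect; nearly all actives have a fitted effect of over 40% in size; top concentration of the series not given in the record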
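Detergent-free condition (0.00005% Triton X-100) in acetate buffer pH 5.5 with DTT. 1.5 nM enzyme and compound were pre-mixed 15 min, then 2 uM Z-FR-AMC substrate added; reaction progress from fluorescence change between first and third reads (60 s).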
Lassa entry inh = qHTS for Inhibitors of binding or entry into cells for Lassa Virus; Lassa virus pseudotype entry inhibition, cell reporter; control for the full effect not named in the record; Potency, µM (doses to about 37.9 µM), for inactives: at the highest dose activity change, negative = inhibition, hits mostly inhibitors; actives 1.2% (n = 300,000); AID 540256, 2011; active means well fitted inhibition curve with a large enough effect; inconclusive means small, poorly fitted or top-dose-only effect, or effect the other way; inactive means flat fitted curve, though single readings scatter; tested in HEK293 cells; note: % is set by controls: 0 for no effect and ±100 for the full control effect; nearly all actives have a fitted effect of over 50% in size; luciferase read-out
NS1 function inh = qHTS Assay for Inhibitors of Influenza NS1 Protein Function | S. cerevisiae slowed by influenza A NS1, growth recovery by OD600 | Potency, µM (highest dose often 46.1 µM), without a hit: at the highest dose activity, positive = more growth | actives 0.4% (n = 270,000); active means well fitted rising curve with a large enough effect; inconclusive means small, poorly fitted or top-dose-only effect; inactive means no such curve, though single readings can be large or run the other way; note: nearly all actives have a fitted effect of over 50% in size
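In this qHTS, NS1 from influenza A is expressed in budding yeast, where it slows growth. Cells are switched from glucose to 2% galactose medium (pH 6.0, -URA), treated with compound, and growth recovery is read at OD600.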
2A StopGo = High Throughput Screening for Foot and Mouth Disease Virus Antivirals. human cells with a luciferase reporter of 2A StopGo recoding; control for the full effect not named in the record. Potency, µM (series often up to 57.9 µM), without a hit: at the highest dose signal change, negative = less light. actives 1.2% (n = 410,000). AID 1159524, 2015; active = well fitted falling curve with a large enough effect; inconclusive = small, poorly fitted or top-dose-only effect; inactive = no such curve, though single readings can be large or run the other way; tested in HEK293T cells; note: % is set by controls: 0 for no effect and ±100 for the full control effect; nearly all actives have a fitted effect of over 45% in size; luciferase light after 4 h
* = called active by the depositor; ? = inconclusive; / = not tested or not shown; & = joins results of further samples; [ ] = another dose, or the depositor's remark. Unless noted, calls come from the whole dose curve; as a rule, active = well fitted curve in the direction sought with a large enough effect; inconclusive = small, poorly fitted or top-dose-only effect, or another doubt; inactive = no such curve, though single readings can be large; an effect the other way counts as inactive or inconclusive. Potency is the fitted concentration of half-maximal effect. This is a random part of the collection. Share with any hit: about 4.6%.

Structure,MARV entry inh,SARS PLpro yeast,Cruzain Triton,RE007 growth inh,Cruzain noTriton,Lassa entry inh,NS1 function inh,2A StopGo
Cc1ccc(C)c(N2CCN(C(=O)c3ccc4c(c3)c(C)c(C)n4C)CC2)c1,?,-20.1%,-4.1%,-6.0%,-3.0%,?,24.5%,-20.4%&-13.1%
CCOc1ccc(NC(=O)CCn2c(=O)[nH]c3ccsc3c2=O)cc1,25.4%,-3.6%,0.9%,4.9%,-7.6%,-1.4%,16.5%,10.1%
CCOC(=O)C(c1ccccc1)C(Nc1ccc(Cl)c(Cl)c1)c1ccccn1 (stereo not given),?,0.0%,/,0.6%,/,-11.7%[46.1 µM],0.9%,1.8%
CC1CCN(CC(=O)Nc2ccc(C(=O)N3CCCCC3)cc2)CC1,-2.9%,3.8%,/,59.8%,/,1.5%,1.8%,-1.9%
CC(=O)c1cc2c(cc1NC(=O)Nc1cccc(Cl)c1)OCCO2,17.4%[46.1 µM],6.6%,2.5%,7.5%,-8.3%,-8.9%,19.6%,-17.1%
CCNC(=O)C(=O)NCC1CCCN1S(=O)(=O)c1cccs1 (stereo not given),?,7.4%,/,2.1%,/,-18.1%[46.1 µM],/,-4.9%
CCc1ccc(NC(=O)C2CCN(c3nn4c(=O)cc(C)nc4s3)CC2)cc1,10.8%[46.1 µM],/,-1.9%,/,-3.5%,?,/,16.3%
CC(=O)Nc1ccc2c(COC(=O)CC3Sc4ccccc4NC3=O)cc(=O)oc2c1 (stereo not given),-1.8%[46.1 µM],-0.1%,/,27.4%,/,-13.6%[46.1 µM],5.5%,30.0%
Cc1cc(=O)oc2cc(NC(=O)c3ccc(OC(F)F)cc3)ccc12,17.3%[46.1 µM],-1.2%,/,-8.1%,/,?,-57.5%,44.7%[activator]
O=C(NCCCn1ccnc1)/C(=C/c1ccco1)NC(=O)c1cccs1,16.5%[46.1 µM],0.0%,/,-2.6%,/,-1.5%,/,21.0%
O=S(=O)(Nc1ccc(Nc2ccccc2)cc1)c1ccc(F)cc1,?,/,/,-9.8%,/,20.2%[46.1 µM],/,32.4%[activator]
COc1ccc(OC)c(NC(=O)CSc2ncccc2C(=O)O)c1,17.5%,-0.1%,1.4%,-10.5%,-12.3%,5.5%,4.1%,-22.6%
CCOC(=O)c1sc(-c2ccc(OC)cc2)cc1NC(C)=O,1.4%,14.2%,41.6%[activator],-14.3%,?,-4.3%,3.4%,59.4%[activator]
Cc1ccc(/C=N/NC(=O)c2ccc(-n3cnnn3)cc2)cc1,-9.8%,-3.1%,/,11.0%,/,?,/,-24.5%
O=C1NC(=S)N(c2ccccc2)C(=O)C1C(c1ccncc1)C1C(=O)NC(=S)N(c2ccccc2)C1=O (stereo not given),12.4%[46.1 µM],-4.4%,/,-0.3%,/,-17.0%,/,3.2%
c1ccc2sc(N3CCN(Cc4nnnn4CC4CCCO4)CC3)nc2c1 (stereo not given),-17.4%,1.1%,1.6%,-1.8%,12.9%,?,-9.1%,?
CCN(C(=O)c1ccco1)c1nc(-c2ccc(OC)cc2)cs1,/,-6.4%,/,-4.3%,/,/,-43.4%,58.1%[activator]
COc1ccc(Cl)cc1NC(=O)C(C)Sc1nc2c(c(=O)[nH]1)CCCC2 (stereo not given),6.5%[46.1 µM],/,-3.4%,/,-3.9%,0.3%[46.1 µM],/,0.3%
O=[N+]([O-])c1ccc(CSc2nc3ccccc3o2)cc1,?,-4.7%,-7.4%,2.8%,1.5%,7.5%,5.5%,8.5%
COc1cccc(-c2ccc(SCC(=O)NCCc3ccccc3)nn2)c1,6.8%[46.1 µM],0.3%,/,3.1%,/,-14.2%,/,17.2%
CC(C)(C)c1cc(CN2CCCC(O)C2)c(O)c(C(C)(C)C)c1 (stereo not given),?,-0.5%,-5.7%,-0.5%,12.4%,-21.9%,-15.6%,-27.3%
CCN1CNC(=S)N(CCc2ccccc2)C1,?,28.8%,-0.9%,-14.6%,-3.6%,?,13.2%,-0.7%
OC(c1nc2ccccc2[nH]1)C(O)C(O)C(O)c1nc2ccccc2[nH]1 (stereo not given),?,0.3%,/,3.4%,/,22.6%,8.2%,-1.8%
COc1ccc(-n2c(=O)c3c4c(sc3n(Cc3ccc(C(C)(C)C)cc3)c2=O)CCC4)c(OC)c1,?,/,-12.5%,/,14.7%,?,/,-12.7%
Cc1ccc(C(=O)O/N=C(\N)Cc2ccc([N+](=O)[O-])cc2)c(Cl)c1,/,-4.8%,/,-21.4%,/,/,-75.6%,?
O=C(NC1CCc2ccccc21)C12CN(Cc3ccccc3)CC1C(c1cccc([N+](=O)[O-])c1)=NO2 (stereo not given),-0.9%,-6.8%,7.0%,4.3%,12.6µM*,/,23.2%,30.9%[activator]
Cc1ccccc1OCC(=O)Nc1ccc(S(=O)(=O)Nc2ncccn2)cc1,/,/,-3.3%,/,-4.0%,7.3%[46.1 µM],/,-19.1%
CCOC(=O)c1c(C)c(C(=O)NCCc2ccc(OC)cc2)c(C)n1C,-3.4%[46.1 µM],/,-0.1%,/,1.4%,/,/,4.9%
C/C=C/Cn1cccc(C(=O)Nc2ccc(OC)cc2)c1=O,7.3%[46.1 µM],-2.0%,/,-6.5%,/,2.8%,/,1.7%
Cc1ccc(N(CC(=O)NCC2CCCO2)C(=O)CCC(=O)Nc2cc(C)on2)cc1 (stereo not given),26.2%[46.1 µM],0.1%,/,-3.1%,/,10.2%,-1.6%,1.5%

Individual results from the list.
In Lassa entry inh, Cc1ccccc1OCC(=O)Nc1ccc(S(=O)(=O)Nc2ncccn2)cc1 is entered as 7.3%[46.1 µM]
In MARV entry inh, c1ccc2sc(N3CCN(Cc4nnnn4CC4CCCO4)CC3)nc2c1 (stereo not given) is entered as -17.4%

One compound at a time, as listed above. Screens in order: MARV entry inh | SARS PLpro yeast | Cruzain Triton | RE007 growth inh | Cruzain noTriton | Lassa entry inh | NS1 function inh | 2A StopGo
O=C1NC(=S)N(c2ccccc2)C(=O)C1C(c1ccncc1)C1C(=O)NC(=S)N(c2ccccc2)C1=O (stereo not given) as listed: 12.4%[46.1 µM] | -4.4% | / | -0.3% | / | -17.0% | / | 3.2%
O=S(=O)(Nc1ccc(Nc2ccccc2)cc1)c1ccc(F)cc1 as listed: ? | / | / | -9.8% | / | 20.2%[46.1 µM] | / | 32.4%[activator]

(cont.)
Structure,MARV entry inh,SARS PLpro yeast,Cruzain Triton,RE007 growth inh,Cruzain noTriton,Lassa entry inh,NS1 function inh,2A StopGo
COc1ccc(-c2noc(CSc3nnc(C)n3-c3cccc(C)c3)n2)cc1,-4.0%[46.1 µM],/,-7.5%,/,-4.3%,?,/,?
COc1ccc(C)cc1NC(=O)c1ccccc1NS(=O)(=O)c1cccc2cccnc12,-34.8%,-6.7%,0.2%,-5.0%,?,0.5%,-8.0%,7.6%
Cc1ccc2nc(-c3ccncc3)c(Nc3ccc(C(C)C)cc3)n2c1,/,/,-1.2%,/,3.6%,-6.5%[46.1 µM],/,?
O=C(c1ccccc1)N(Cc1cccs1)C1CCS(=O)(=O)C1 (stereo not given),2.7%,2.4%,4.0%,14.7%,2.3%,?,1.4%,/
CC1CN(C(=O)C2CC2)C(C)CN1C(=O)C1CC1 (stereo not given),-24.8%,4.1%,-1.1%,3.2%,7.0%,10.9%,6.2%,-14.2%
CC(C)c1ccccc1NC(=O)CN1C(=O)c2cccc3cccc1c23,?,/,-2.7%,/,4.1%,5.6%[46.1 µM],/,-25.5%
O=C(c1ccc(S(=O)(=O)Cc2ccccc2F)c([N+](=O)[O-])c1)N1CCCCCC1,?,4.4%,/,0.9%,/,-8.8%,/,?
CCc1ccc(CN2CCc3nc(Nc4ccccc4)ncc3C2)cc1,/,/,-11.8%,/,?,28.4%[46.1 µM],/,-20.3%
CC(C)COC(=O)N(C)c1ccc(C(O)(C(F)(F)F)C(F)(F)F)cc1,5.0%,-1.9%,-2.5%,-8.2%,8.6%,3.55µM*,-34.5%,?
Cc1ccccc1CNC(=O)C1CCN(c2nnc(N3CCCC3=O)s2)CC1,/,2.3%,/,2.8%,/,/,10.0%,-3.5%
Cc1c(C)c2ccc(OCC(=O)Nc3cccnc3)cc2oc1=O,/,0.4%,/,3.5%,/,/,11.4%,2.1%
COc1ccc(CC(=O)NNC(=S)Nc2ccccc2)cc1Br,11.6%,4.8%,1.7%,-12.4%,4.2%,1.8%,-0.8%,-5.1%
C/C(=N\NC(=S)NC(C)C)c1ccc(-n2ccnc2)cc1,0.0%,2.6%,-19.4%,0.2%,?,0.4%,11.4%,-23.8%
CCOC(=O)/C(C#N)=C\c1cc(C)n(-c2ccccc2)c1C,?,3.1%,-12.6%,-10.6%,6.7%,?,9.4%,?
CCOC(=O)c1sc(NC(=O)CN2C(=O)NC3(CCCCCCC3)C2=O)c(C(=O)OCC)c1C,/,1.0%,/,-2.2%,/,/,-3.9%,-4.5%
Cc1ccc(C2C3=C(CCCC3=O)N=C3c4ccccc4C(=O)C32)cc1 (stereo not given),?,-4.2%,-11.1%,8.8%,-1.2%,-23.9%,16.0%,0.0%
C=CCN(C(=O)CNC(=O)c1ccco1)C(C(=O)NC1CCCCC1)c1ccc(OC)cc1 (stereo not given),-16.5%,9.7%,-1.0%,14.1%,4.2%,2.9%,3.9%[9.22 µM],17.6%
CCOC(=O)c1c(NC(=O)COc2cccc3c2CCN(C)C3=O)sc2c1CCC2,?,-5.7%,-1.7%,-6.0%,?,?,23.4%,?
